# Bioassay records as filed in PubChem.
# KCNQ2 inh – KCNQ2 potassium channel inhibitors, primary screen, cell-based, CHO-K1, FluxOR thallium flux, B-score (AID 2156); 20 min; hits give low values; only compounds with negative scores are shown here; some inactives read as strong as hits; 310,000 tested, 1.1% active; Potassium voltage-gated channel subfamily KQT member 2 (Rattus norvegicus), O88943; B-score at 10 µM;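 active = fluorescence ratio B-score at most minus 3 library SDs, with starting brightness B-score within 2 library SDs, cut at about -5.5 in these data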
# Target sequence (O88943 whole entry, looked up): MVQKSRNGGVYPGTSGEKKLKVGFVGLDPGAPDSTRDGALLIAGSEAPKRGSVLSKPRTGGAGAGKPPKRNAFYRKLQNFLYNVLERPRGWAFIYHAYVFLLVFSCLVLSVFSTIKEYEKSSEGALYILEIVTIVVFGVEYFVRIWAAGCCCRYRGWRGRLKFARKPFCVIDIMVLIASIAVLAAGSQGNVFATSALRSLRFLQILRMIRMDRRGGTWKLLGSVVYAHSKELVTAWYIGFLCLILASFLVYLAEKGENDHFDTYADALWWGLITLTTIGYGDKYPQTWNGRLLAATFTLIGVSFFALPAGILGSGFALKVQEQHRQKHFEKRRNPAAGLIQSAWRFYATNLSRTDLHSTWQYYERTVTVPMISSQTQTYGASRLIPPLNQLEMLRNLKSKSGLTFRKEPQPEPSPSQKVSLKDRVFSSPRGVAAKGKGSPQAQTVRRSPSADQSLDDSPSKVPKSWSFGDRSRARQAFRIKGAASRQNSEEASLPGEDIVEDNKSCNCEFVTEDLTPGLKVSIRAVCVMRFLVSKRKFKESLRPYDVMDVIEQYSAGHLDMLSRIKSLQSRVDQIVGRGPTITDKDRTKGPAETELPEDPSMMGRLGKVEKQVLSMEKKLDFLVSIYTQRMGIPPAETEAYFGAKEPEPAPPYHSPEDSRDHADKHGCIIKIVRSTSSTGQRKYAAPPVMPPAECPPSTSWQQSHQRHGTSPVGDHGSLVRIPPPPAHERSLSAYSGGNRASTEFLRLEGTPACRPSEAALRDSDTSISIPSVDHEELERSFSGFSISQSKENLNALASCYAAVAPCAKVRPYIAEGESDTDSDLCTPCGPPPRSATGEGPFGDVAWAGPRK
# KCNQ2 inh baseline – second read-out of KCNQ2 inh, no call of its own (marks repeat the call); B-score; measured here: initial fluorescence intensity artifact check;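 brightness before thallium and not channel activity; 0 = typical well and far values either way flag optical interference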
# * marks the source's active call; other numbers are inactive results; i = inactive. The list is partial. The share of hits here may be higher or lower than overall.
structure | KCNQ2 inh | KCNQ2 inh baseline
N#Cc1c(/N=C/c2ccco2)oc(-c2ccccc2)c1-c1ccccc1 | i | 0.18
O=C(NCCS(=O)(=O)N1CCN(c2ccccc2F)CC1)c1ccco1 | i | 0.61
O=Cc1cc([N+](=O)[O-])ccc1N1CCN(Cc2ccc3c(c2)OCO3)CC1 | i | -2.52
CCN(CC)CCOC(=O)c1cccc2c1-c1ccccc1C2O (stereo unspecified) | i | 1.16
S=c1[nH]nc(CSc2nc3ccccc3s2)o1 | i | 1.93
CCCNC(=O)COc1coc(CN2CCN(c3ccccc3OC)CC2)cc1=O | i | -0.57
Cc1ccc(C(=O)NNC(=O)c2cc3ccccc3cc2O)cc1 | i | -2.52
CC(C)n1nc(C(=O)Nc2nnc(C3CC3)s2)c2ccccc2c1=O | i | -0.62
CCOCCCNC(=O)c1cc2c(=O)n3ccccc3nc2s1 | i | -1.42
O=C(/C=C/c1ccccc1[N+](=O)[O-])Nc1ccccc1 | i | -0.83
CC(C)c1ccc(NC(=O)NC(C)c2ccc3c(c2)OCO3)cc1 (stereo unspecified) | i | -0.31
CC(=O)Nc1nc2ccccc2n1CCOc1ccccc1 | i | 0.87
Cc1cc(Cl)ccc1OCC(=O)NCc1ccncc1 | i | 3.24
O=C(c1ccc(F)cc1)N1CCN(c2ccc(N3CCOCC3)nn2)CC1 | i | -1.5
CCOCc1nnc(NC(=O)c2cc(OC)c(OC)c(OC)c2)s1 | i | 0.29
O=C(NCC(c1ccco1)N1CCCCC1)c1ccc(NS(=O)(=O)c2ccc(F)cc2)cc1 (stereo unspecified) | i | 0.25
COc1ccc(NC(=O)N2CCCC2C(=O)NC23CC4CC(CC(C4)C2)C3)cc1 (stereo unspecified) | i | 1.21
NCc1nc(-c2ccc(Cl)cc2)no1 | i | 0.36
CC1CCCC(C)N1S(=O)(=O)c1ccc(S(=O)(=O)N2CCOCC2)cc1 (stereo unspecified) | i | 1.26
COc1cccc(NC(=O)COC(=O)c2c(F)cccc2Cl)c1 | i | -1.26
O=C(c1cc(-c2ccc(F)cc2)on1)N1CCN(c2ccc(F)cc2)CC1 | i | -1.79
O=C(N1CCN(c2ccccc2)CC1)C1(c2cccs2)CCOCC1 | i | 1.15
CN(C)CCCN(C(=O)c1ccc(Br)s1)c1nc2cc3c(cc2s1)OCO3 | i | 1.08
Cc1nc2sccn2c(=O)c1S(=O)(=O)NCc1ccccc1Cl | i | 2.28
O=C(CNC(=O)[C@@H]1Cc2ccccc2CN1)Nc1ccc2c(c1)OCCO2 | i | 1.68
Cc1cccc(OCCC(=O)N(C)CC(=O)Nc2cccc3ccccc23)c1 | i | 1.5
c1ccc2c(c1)nnn2Cc1nnc2sc(-c3ccncc3)nn12 | i | 1.52
CNC(=O)NC(=O)CSc1nnc(-c2ccco2)n1-c1ccccc1 | i | -0.29
Cc1cccc(C)c1NC(=S)NCCc1ccc(O)c(O)c1 | i | -2.64
CCCCOc1ccc(Nc2nc(C)cc(C)c2C#N)cc1 | i | 1.12
O=C(NCCN1CCNCC1)c1ccccn1 | i | 0.63
Cc1ccc(C)c(N2C(=O)CC(Cc3ccc(Br)cc3)C2=O)c1 (stereo unspecified) | i | 0.72
CCOc1ccccc1CN1CCNC(=O)C1CC(=O)NCCc1ccccn1 (stereo unspecified) | i | 0.07
CCOc1cc(S(=O)(=O)n2ccnc2)ccc1Br | i | 0.43
Cn1cnnc1SCC(=O)Nc1cccc(C(=O)O)c1 | i | -1.28
O=C(OCC(=O)N1CCC(Cc2ccccc2)CC1)c1cc(Cl)ccc1O | i | 0.16
OCCNc1nc(N2CCOCC2)nc(N2CCOCC2)n1 | i | -0.13
CCc1nc2ccc(Cc3ccc4nc(CC)[nH]c4c3)cc2[nH]1 | i | -0.83
COc1cccc(Cn2c(-c3nonc3N)nc3ccccc32)c1 | i | -1.6
O=Nc1c(O)[nH]c2ccc(Cl)cc12 | i | 7.2
O=C(Cc1cccs1)NC(c1ccccc1)c1ccccc1 | i | 0.01
Cc1ccc(C)c(NC(=O)CSc2nnc(-c3ccccc3)n2N)c1 | i | 1.25
O=C(Nc1cc(Cl)cc(Cl)c1)Nc1cnccn1 | i | 0.32
Cc1ccc(F)c(CNC(=O)C2CCC(=O)N(Cc3ccccn3)C2)c1F (stereo unspecified) | i | 0.21
COc1ccc(CCN2CC(C(=O)N3CCSCC3)CCC2=O)cc1 (stereo unspecified) | i | 2.42
O=C(NCc1csc(-c2cccs2)n1)C1CCCCC1 | i | -0.09
CC1CCN(c2ccc(NC(=O)Cn3c(=O)oc4ccccc43)cc2)CC1 | i | -1.36
O=C(Nc1ccccc1Cl)Oc1ccc(-c2ccccc2)cc1 | i | -0.81
CC12CC(c3ccccc3O1)N(C(=O)c1ccc(Br)o1)C(=O)N2c1ccccc1 (stereo unspecified) | i | -0.03
Cc1ccccc1C([O-])=Nc1ccc[n+](-c2nc3ccccc3nc2NS(=O)(=O)c2ccccc2)c1 | i | 0.34
Cc1ccccc1NC(=S)N1CCN(c2ccccc2C)CC1 | i | -0.29
CCOc1ccc(N(CC(=O)NCc2ccccc2)C(=O)CCC(=O)Nc2nccs2)cc1 | i | -1.11
C=CCc1ccccc1OCC(O)CN1CCN(c2ccccc2OC)CC1 (stereo unspecified) | i | -2.31
Cc1ccc(C)c(Cn2c(=O)n(CCC(=O)NCc3ccco3)c(=O)c3sccc32)c1 | i | 0.66
COc1ccc(Cn2c(=O)sc3ccccc32)cc1OC | i | 2.22
COc1ccc(CNCc2cn(-c3cccc(F)c3)nc2-c2ccc(C)o2)cc1 | i | -1.35
Cc1sc(NC(=O)CSc2nnc(C(C)C)n2C)c(C#N)c1C | i | 0.43
O=C(CCCn1c(=S)[nH]c2cc3c(cc2c1=O)OCO3)NCc1ccco1 | i | -2.35
Cc1cccc(-c2nsc(SCC(=O)N3CCCC3)n2)c1 | i | 1.28
O=C(CS(=O)CC(=O)N(c1ccccc1)C(C(=O)NC1CCCCC1)c1ccco1)Nc1ccc(F)cc1 (stereo unspecified) | i | -1.54

# Reformatted with each value named: entries from further up
CCOc1ccc(N(CC(=O)NCc2ccccc2)C(=O)CCC(=O)Nc2nccs2)cc1
  KCNQ2 inh = i; KCNQ2 inh baseline = -1.11

C=CCc1ccccc1OCC(O)CN1CCN(c2ccccc2OC)CC1 (stereo unspecified)
  KCNQ2 inh = i; KCNQ2 inh baseline = -2.31

Cc1ccc(C)c(Cn2c(=O)n(CCC(=O)NCc3ccco3)c(=O)c3sccc32)c1
  KCNQ2 inh = i; KCNQ2 inh baseline = 0.66

COc1ccc(Cn2c(=O)sc3ccccc32)cc1OC
  KCNQ2 inh = i; KCNQ2 inh baseline = 2.22

# Next records
structure | KCNQ2 inh | KCNQ2 inh baseline
Cc1cc2ncn(-c3ncnc4scc(-c5ccccc5)c34)c2cc1C | i | 0.58
Cc1ccc(C(=O)Nc2ccc(C)c(S(=O)(=O)Nc3ccccc3Cl)c2)s1 | i | -0.29
COC(=O)C1CCN(c2nc3ccccc3nc2C(C#N)C(=O)NCCc2ccccc2)CC1 (stereo unspecified) | i | 2.78
CCCn1c(SCC(=O)Nc2ccccc2-c2ccccc2)nnc1-c1ccoc1C | -5.8* | 0.01*
CCOc1ccc(NC(=O)C(C)Oc2ccccc2C(=O)Nc2cccc(Cl)c2Cl)cc1 (stereo unspecified) | i | 0.77
CN(C)CCn1c2c(c(SCC(=O)Nc3cccc4ccccc34)nc1=O)CCCC2 | i | -1.89
CCc1ccc(N(C(=O)c2ccco2)C(C(=O)NC2CCCC2)c2ccncc2)cc1 (stereo unspecified) | i | -0.29
C=CCNC(=S)N1CCN(S(=O)(=O)c2ccc(C)cc2)CC1 | i | -0.71
Fc1ccc(-c2cc(C(F)(F)F)nc(N3CCCCC3)n2)cc1 | i | 0.07
COc1ccc(/C=C/C(=O)NC2=NCCS2)cc1OC | i | -0.23
CCC1C(C#N)=C(N)OC2=C1C(=O)CC(C)(C)C2 (stereo unspecified) | i | 0.86
CCOC(=O)c1cn2nc(-c3ccc(OC)cc3)cc2nc1C1CCN(C(=O)OC(C)(C)C)CC1 | -8.58* | -0.4*
CCCCC#Cc1ccc(C(=O)NNC(=O)Nc2cc(Cl)cc(Cl)c2)o1 | i | -1.24
COc1cc(OC)c(OC)cc1CN1CCN(C(=O)c2cccc3ccccc23)CC1 | i | -2.07
CCOC(=O)C1CCN(C(=O)CCCN2C(=O)c3ccccc3C2=O)CC1 | i | -0.43
CCC(=O)Oc1c(C(=O)CC)cc2c(C)cc(=O)oc2c1C | i | 0.25
CSc1ccccc1C(=O)NC1CCCc2ccccc21 (stereo unspecified) | i | -0.67
CCOC(=O)c1cnc(-c2ccccc2)nc1Oc1ccccc1 | i | -0.55
O=C1CCC(=O)N(c2ccccc2)N1 | i | -1.33
COc1ccccc1CNC(=O)c1ccoc1C | i | -0.16
CCOC(=O)c1nnn(-c2nonc2N)c1CN1CCCC1 | i | 2.03
N#Cc1nc(Cc2cccc3ccccc23)oc1N1CCN(c2ccccc2)CC1 | i | 1.26
Cc1cc(OC(=O)c2ccccc2C)c([N+](=O)[O-])c(=O)[nH]1 | i | -0.28
Cn1cnnc1SCC(=O)Nc1nc(-c2ccc(F)cc2)cs1 | i | 0.54
c1coc(-c2nnc3n2C2(CCCC2)Cc2ccccc2-3)c1 | i | 0.49
O=C(Nc1ccccc1)C1=C[C@H](C2CCCCC2)C[C@H](OCCCCO)O1 | i | -0.67
O=C(NCCN1CCOCC1)C1CCN(Cc2ccccc2O)CC1 | i | -0.34
Cc1ccccc1Oc1nc2c(c(=O)n(C)c(=O)n2C)n1C | i | 0.04
CC1=C(C)CS(=O)N(S(=O)(=O)c2ccc(Cl)cc2)C1 (stereo unspecified) | i | -0.03
COc1ccc(-c2csc(NC(=S)NC(=O)c3ccccc3)n2)cc1Br | i | -1.11
COC(=O)c1cc(=O)n(-c2ccc(F)cc2)c(=Nc2ccc(F)cc2)s1 | i | -0.89
COc1ccccc1C(=O)NNC(=O)c1ccc(NC(=O)c2ccccc2)cc1 | i | 1.02
CCC(=O)c1ccc(OCC(=O)OCC(=O)Nc2sccc2C(N)=O)cc1 | i | -0.92
CCOC(=O)C1=C(c2ccccc2)Nc2ncnn2C1c1ccc(OC)c(OC)c1OC (stereo unspecified) | i | -0.21
Cc1ccc(C2CC(=O)NC(SCc3ccccc3)=C2C#N)cc1 (stereo unspecified) | i | -0.77
O=C(Cn1nc(-c2ccccc2)ccc1=O)NCCN1CCN(Cc2ccccc2)CC1 | i | -1.27
CC(Oc1ccc(Cl)cc1)C(=O)NCCN1C(=O)S/C(=C\c2cccnc2)C1=O (stereo unspecified) | i | 0.21
CC(CS(=O)(=O)c1ccc2c(c1)NC(=O)CS2)C(=O)NCc1ccccc1Cl (stereo unspecified) | i | -0.48
COc1ccc2oc(=O)c(C(=O)O)cc2c1 | i | -0.03
CS(=O)(=O)N1CCN(c2ccccc2NC(=O)c2cccnc2)CC1 | i | -1.66
COc1cc(C)c(Cl)cc1S(=O)(=O)N1CCCC1 | i | -0.57
Cc1cc(NC(=O)COC(=O)[C@@H](NS(=O)(=O)c2ccc(Br)cc2)C(C)C)no1 | i | 0.37
COc1ccc2nc(N3C(=O)CC(C(C)c4ccccc4)C3=O)sc2c1 (stereo unspecified) | i | -0.6
CC(=O)N1CC=CC1(C)C(=O)NCc1cc(F)cc(C(F)(F)F)c1 (stereo unspecified) | i | -2.66
Cc1oc(-c2ccc(Cl)cc2)cc1-c1nn2c(-c3ccoc3C)nnc2s1 | i | 0.17
CCOC(=O)C1(Cc2cccc(OC)c2)CCN(C/C=C/c2ccc(OC)cc2)CC1 | i | 2.5
COC(=O)CCCC1=CC2=CC(=O)C(C)(OC(=O)C3CCCC3)C(=O)C2=CO1 (stereo unspecified) | i | 1.05
CCN(CC)C(C(=O)Nc1ccc2c(c1)OCO2)c1ccccc1 (stereo unspecified) | i | -1.47

# Single records, as listed above:
# Entry for COC(=O)CCCC1=CC2=CC(=O)C(C)(OC(=O)C3CCCC3)C(=O)C2=CO1 (stereo unspecified) → KCNQ2 inh = i; KCNQ2 inh baseline = 1.05
# Entry for Cc1oc(-c2ccc(Cl)cc2)cc1-c1nn2c(-c3ccoc3C)nnc2s1 → KCNQ2 inh = i; KCNQ2 inh baseline = 0.17

# (next part)
structure | KCNQ2 inh | KCNQ2 inh baseline
CCCCCn1c(N2CCC(Cc3ccccc3)CC2)nc2c1c(=O)[nH]c(=O)n2C | i | -0.01
S=C1NC2(CCCC2)N=C1c1ccccc1 | i | 0.75
CCCn1cc(NC(=O)C2CC(c3cccc(Br)c3)=NO2)cn1 (stereo unspecified) | i | -1.98
CCOc1ccc(N(C(C)C(=O)NC(C)CC)S(C)(=O)=O)cc1 (stereo unspecified) | i | -0.45
Cc1ccc(NC(=O)CN(C)S(=O)(=O)c2cccc3cccnc23)cc1C | i | -0.51
Cn1nc(C(=O)NC2CCCCCC2)ccc1=O | i | -1.51
COc1ccc(/C=N/NC(=O)c2[nH]ncc2Br)c(OC)c1 | i | -0.12
Fc1cccc(COc2ccccc2CNc2ccccc2)c1 | i | 2.41
Cc1ccc(-n2nc(C)c3c(C)c(CCC(=O)O)c(C)nc32)cc1C | i | 0.62
Cn1nnnc1NCc1cccc(Cl)c1 | i | -0.44
COc1cc(O)c(C(CCN2CCOCC2)c2ccc(N(C)C)cc2)c(OC)c1 (stereo unspecified) | i | -0.24
O=C(CSc1nc(C(F)(F)F)cc(=O)[nH]1)Nc1cccc2ccccc12 | i | 1.22
Cc1ccc(S(=O)(=O)N2CCCOC2CNC(=O)C(=O)NC2CCCCC2)cc1 (stereo unspecified) | i | -0.25
COc1ccc(/C=C/C(=O)OCC(=O)NCCNC(=O)COC(=O)/C=C/c2ccc(OC)cc2)cc1 | i | 0.26
